NS1 inh: qHTS Assay for Inhibitors of Influenza NS1 Protein Function; S. cerevisiae slowed by influenza A NS1, growth recovery by OD600; Potency, µM (titrated, usually from 46.1 µM), for the others: top-dose activity, positive = more growth; 0.4% of 270,000 active; AID 2326, 2010; active means well fitted rising curve with a large enough effect; inconclusive means small, poorly fitted or top-dose-only effect; inactive means no such curve, though single readings can be large or run the other way; note: nearly all actives have a fitted effect of over 50% in size
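A cell-based growth assay was used: compounds that relieve NS1-induced slow growth of budding yeast raise OD600. Assay medium was yeast nitrogen base with ammonium sulphate and -URA supplement, pH 6.0, with 2% galactose.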
2A StopGo: High Throughput Screening for Foot and Mouth Disease Virus Antivirals. Potency, µM (series often up to 57.9 µM), without a hit: at the highest dose signal change, negative = less light. human cells with a luciferase reporter of 2A StopGo recoding; control for the full effect not named in the record. 1.2% of 410,000 active; active = well fitted falling curve with a large enough effect; inconclusive = small, poorly fitted or top-dose-only effect; inactive = no such curve, though single readings can be large or run the other way; tested in HEK293T cells; note: % is set by controls: 0 for no effect and ±100 for the full control effect; nearly all actives have a fitted effect of over 45% in size; luciferase light after 4 h
Cruzain inh noDet: qHTS Assay for Promiscuous and Specific Inhibitors of Cruzain (without detergent) | Cruzipain (Trypanosoma cruzi), P25779 | purified cruzain, Z-FR-AMC fluorescence, no detergent | Potency, µM, for inactives: max response, negative = inhibition, most hits filed as inhibitors | 2.3% of 200,000 active | AID 1476, 2009;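 note: plate controls were enzyme without inhibitor for no effect and buffer without enzyme for full effect; nearly all actives have a fitted effect of over 40% in size; top concentration of the series not given in the record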
Target sequence (P25779 123-467 limits assumed): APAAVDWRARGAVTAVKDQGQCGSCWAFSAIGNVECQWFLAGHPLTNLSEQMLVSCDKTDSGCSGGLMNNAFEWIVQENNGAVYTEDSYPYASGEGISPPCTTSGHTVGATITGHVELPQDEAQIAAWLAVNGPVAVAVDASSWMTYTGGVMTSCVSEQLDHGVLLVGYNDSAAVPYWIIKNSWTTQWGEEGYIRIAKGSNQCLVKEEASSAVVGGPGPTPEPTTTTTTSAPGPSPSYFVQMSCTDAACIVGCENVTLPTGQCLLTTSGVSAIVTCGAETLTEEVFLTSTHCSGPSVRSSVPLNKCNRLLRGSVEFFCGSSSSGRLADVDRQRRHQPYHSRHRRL
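Purified cruzain at 1.5 nM, pre-incubated 15 min with compound at room temperature in 100 mM sodium acetate pH 5.5, 5 mM DTT, 0.00005% Triton X-100. Reaction started with 2 uM Z-FR-AMC; AMC fluorescence increase over 60 s gives rate.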
Cruzain inh Det: qHTS Assay for Promiscuous and Specific Inhibitors of Cruzain (with detergent) | Cruzipain (Trypanosoma cruzi), P25779 | purified cruzain, Z-FR-AMC fluorescence, 0.01% Triton | Potency, µM, without a hit: max response, negative = inhibition, usual class: inhibitors | 0.43% of 200,000 active | AID 1478, 2009;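 note: plate controls were neutral wells for no effect and buffer without enzyme for full effect; nearly all actives have a fitted effect of over 40% in size; top concentration of the series not given in the record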
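Cysteine protease activity tested under reducing, mildly acidic conditions (100 mM sodium acetate pH 5.5, 5 mM DTT) plus 0.01% Triton X-100. Cruzain 1.5 nM; substrate Z-FR-AMC 2 uM; 15 min compound preincubation at room temperature.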
RE007 growth inh: qHTS Assay for Inhibitors of the HIV-1 protein Vpr; S. pombe RE007 Vpr strain, BacTiter-Glo ATP luminescence, 24 h; control for the full effect not named in the record; 0.21% of 360,000 active; Potency, µM (top dose mostly 92.2 µM), inactives show at the highest dose activity change, negative = less growth; active = well fitted falling curve with a large enough effect; inconclusive = small, poorly fitted or top-dose-only effect; inactive = no such curve, though single readings can be large or run the other way;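 note: % is set by controls: 0 for no effect and ±100 for the full control effect; nearly all actives have a fitted effect of over 50% in size; the assay follows cell death caused by Vpr and the record does not say whether a fall means rescue or toxicity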
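Fission yeast strain RE007, carrying one chromosomally integrated HIV-1 vpr copy, was seeded at OD 0.01 in PMG+AL medium with 23 nL pinned compound. After 24 h at 30 °C and 99% humidity, viability was read by BacTiter-Glo luminescence.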
SARS PLpro yeast: qHTS of Yeast-based Assay for SARS-CoV PLP; S. cerevisiae expressing SARS-CoV PLpro, growth rescue; control for the full effect not named in the record; Potency, µM (titrated, usually from 32.9 µM), without a hit: top-dose activity, positive = growth rescue; 0.19% of 330,000 active; AID 485353, 2010; active means well fitted rising curve with a large enough effect; inconclusive means small, poorly fitted or top-dose-only effect; inactive means no such curve, though single readings can be large or run the other way; note: 0% is about no effect; nearly all actives have a fitted effect of over 55% in size; growth read by luminescence after 48 h
MARV entry inh: qHTS for inhibitors of binding or entry into cells for Marburg Virus; 1.8% of 300,000 active; Marburg virus pseudotyped entry inhibition, cell reporter; control for the full effect not named in the record; about a third of the inactives were read at about 46 µM; Potency, µM (titrated, usually from 37.8 µM), inactives show top-dose activity change, negative = inhibition, usual class: inhibitors; active = well fitted inhibition curve with a large enough effect; inconclusive = small, poorly fitted or top-dose-only effect, or effect the other way; inactive = flat fitted curve, though single readings scatter; tested in HEK293 cells; about a fifth of its hits are not listed in these tables; note: % is set by controls: 0 for no effect and ±100 for the full control effect; luciferase read-out
Lassa entry inh: qHTS for Inhibitors of binding or entry into cells for Lassa Virus; Lassa virus pseudotype entry inhibition, cell reporter; control for the full effect not named in the record; Potency, µM (titrated, usually from 37.9 µM), for inactives: at the top dose activity change, negative = inhibition, actives largely listed as inhibitors; 1.2% of 300,000 active; active means well fitted inhibition curve with a large enough effect; inconclusive means small, poorly fitted or top-dose-only effect, or effect the other way; inactive means flat fitted curve, though single readings scatter; tested in HEK293 cells; note: % is set by controls: 0 for no effect and ±100 for the full control effect; nearly all actives have a fitted effect of over 50% in size; luciferase read-out
Active calls of the source: *; ? = inconclusive; nt = no result given; [ ] = remark or other dose. Unless noted, calls come from the whole dose curve; as a rule, active = well fitted curve in the direction sought with a large enough effect; inconclusive = small, poorly fitted or top-dose-only effect, or another doubt; inactive = no such curve, though single readings can be large; an effect the other way counts as inactive or inconclusive. Potency is the fitted concentration of half-maximal effect.

SMILES	NS1 inh	2A StopGo	Cruzain inh noDet	Cruzain inh Det	RE007 growth inh	SARS PLpro yeast	MARV entry inh	Lassa entry inh
Cc1ccc(C2(C)NC(=O)N(CC(=O)NC(=O)NC3CCCC3)C2=O)cc1 (stereo not given)	-11%	nt	19%	-4.7%	nt	1%	1%	nt
Cc1ccc(NC(=S)NCCCN2CCOCC2)cc1	15%	-16%	-5%	-0.1%	0%	-7%	34%	-3%
O=C(N/N=C/C=C\c1cccc([N+](=O)[O-])c1)c1ccccn1	0%	21%	-18%	-19%	8%	7%	nt	nt
Cc1ccc2ncc(C(=O)NC(C)c3ccccc3)c(=O)n2c1 (stereo not given)	nt	3%	-2%	-1.2%	nt	nt	2%[46.1 µM]	nt
CCOC(=O)C1=C(CC)OC(N)=C(C#N)C1c1ccc(NC(C)=O)cc1 (stereo not given)	2%	0%	1%	-5.6%	6%	21%	-7%	8%
COc1cccc(NC(=O)Cn2c(=O)n(CCc3ccccc3)c(=O)c3c4c(sc32)CN(C(C)=O)CC4)c1	nt	-5%	?	-5.0%	nt	nt	-16%[46.1 µM]	nt
CC(C)C(=O)OCCN=C1NS(=O)(=O)c2ccccc21	-7%	94%[activator]	15%	-3.5%	-25%	7%	0%	?
Cc1cccn2c(Nc3ccccc3)c(-c3ccccn3)nc12	nt	-29%	nt	nt	?	0%	?	-14%[46.1 µM]
CC(=O)N1c2ccc(S(=O)(=O)NCCC(=O)Nc3ccc(F)cc3)cc2CC1C (stereo not given)	-3%	5%	nt	nt	-4%	-6%	29%[46.1 µM]	1%[46.1 µM]
COc1cc(/C=C(/NC(=O)c2ccccc2)C(=O)Nc2ccc(O)cc2)c([N+](=O)[O-])cc1OC	5%	0%	3%	-7.1%	2%	-7%	-14%	?
O=C(NCc1ccccc1Cl)c1ccc2c(=O)n(CCCN3CCCC3=O)c(=S)[nH]c2c1	14%	34%[activator]	6%	-4.6%	13%	0%	2%	8%
O=C(Nc1ccc(F)cc1)c1cccn1-c1nnc(N2CCCCC2)s1	nt	13%	4%	1.2%	nt	nt	nt	7%[46.1 µM]
CCCCCNC(=O)CCn1c(=O)[nH]c2ccccc2c1=O	nt	18%	-4%	1.5%	nt	nt	nt	17%[46.1 µM]
CC(C)C(C(=O)Nc1ccc2c(c1)OCCOCCOCCOCCO2)N1C(=O)c2ccccc2C1=O (stereo not given)	nt	-9%	nt	nt	-6%	-5%	18%[46.1 µM]	6%
Cc1cc(OCC(O)CN(CCO)CCO)ccc1Cl (stereo not given)	-9%	-14%	1%	3.6%	13%	-3%	?	11%
CCNc1nc(OC)nc(N(OC)S(=O)(=O)c2ccc(C)cc2)n1	1%	10%	nt	nt	4%	-1%	nt	nt
CCCSc1ncc(Cl)c(C(=O)Nc2sc3c(c2C(=O)NCCOC)CCCC3)n1	nt	0%	-7%	3.3%	nt	nt	23%[46.1 µM]	20%[46.1 µM]
COCCNC(=O)C(=O)Nc1ccc(Cl)cc1C	nt	0%	nt	nt	5%	-4%	13%[14.2 µM]	-8%
COc1cccc(CN(C)C(=O)c2cccc(S(=O)(=O)Nc3cccc(C)c3)c2)c1OC	nt	7%	nt	nt	-12%	nt	?	-19%
CCOC(=O)/C(C#N)=C/Nc1ccsc1C(C)=O	-4%	33%[activator]	nt	nt	11%	-1%	?	16%
Cc1cccc(Oc2nc3c(C)cccn3c(=O)c2/C=C(\C#N)c2nc3ccccc3s2)c1	nt	-8%	-21%	-3.9%	nt	nt	3%[46.1 µM]	30%[46.1 µM]
O=C(CSc1nc2c([nH]c3ccccc32)c(=O)n1-c1ccc(Cl)cc1)N1CCc2ccccc21	nt	1%	6%	0.0%	nt	nt	nt	6%[46.1 µM]
COc1ccc(OCC(=O)N2CCOCC2)cc1	0%	24%	-11%	0.7%	5%	0%	10%	-1%
CCOC(=O)C1CCN(C(=O)CCc2ccc(S(=O)(=O)NCC(C)C)cc2)CC1	-1%	28%	nt	nt	16%	2%	nt	nt
O=C(O/N=C1/CCCc2occc21)c1ccc(F)cc1	-2%	51%[activator]	nt	nt	-8%	-1%	-8%	-15%
CCn1c(SCC(=O)Nc2ccc(NC(C)=O)cc2)nc2c1c(=O)n(C)c(=O)n2C	8%	6%	nt	nt	-14%	0%	-1%[46.1 µM]	0%
COc1ccc(CNC(=O)c2cccc(NC(=O)c3ccccc3)c2)cc1	1%	14%	nt	nt	-16%	0%	?	-11%[46.1 µM]
COc1ccc(S(=O)(=O)Cc2ccc(C(=O)N3CCN(c4ccc(Cl)cc4)CC3)o2)cc1	-46%	0%	?	0.6%	12%	-12%	0%	nt
Cc1ncoc1C(=O)Nc1ncc([N+](=O)[O-])s1	nt	-62%	nt	nt	?	4%	?	?
Cc1ccc(C)c(C(=O)CN2C(=O)CCC2=O)c1	-1%	-25%	-8%	2.0%	6%	1%	2%	1%
COc1ccc(S(=O)(=O)Nc2nc3ccccc3nc2Nc2ccc3c(c2)OCO3)cc1	-1%	nt	?	-4.8%	nt	-12%	3%	nt
Cc1oc2c(cc(NS(=O)(=O)c3ccc(Cl)cc3)c3ccccc32)c1C(=O)O	8%	?	nt	nt	-7%	-3%	5%[46.1 µM]	27%[46.1 µM]
Cc1cc2c(c(=O)n1Cc1ccccn1)C(C(C)C)C(C#N)=C(N)O2 (stereo not given)	8%	10%	0%	0.2%	26%	5%	19%[46.1 µM]	20%
O=[N+]([O-])c1ccc(O)c(C=Nc2ccc3c(c2)OCO3)c1	-38%	21%	nt	nt	-29%	-4%	7%[46.1 µM]	-9%
COc1ccc(CCNC(=O)C2CCN(C(=O)c3ccc(F)cc3)CC2)cc1	11%	-6%	nt	nt	-1%	3%	nt	nt
CC(C)NC(=O)Cn1c(=O)nc(-c2ccccc2F)c2cc(Cl)ccc21	nt	4%	1%	1.2%	nt	nt	nt	-21%[46.1 µM]
COc1ccccc1NC(=O)NC1CCCCCCC1	-6%	27%	nt	nt	-10%	-7%	1%[46.1 µM]	-14%[46.1 µM]
CN(CCOc1ccc(-c2ccn(S(=O)(=O)c3c(Cl)cccc3Cl)n2)cc1)c1ccccn1	9%	-30%	?	6.4%	2%	?	-18%	9%
COc1ccc(C2CC(=O)Nc3c2c(C)nn3-c2nc(C)cc(C)n2)c(OC)c1OC (stereo not given)	nt	10%	-2%	-1.1%	nt	nt	1%[46.1 µM]	-11%[46.1 µM]
Cc1ccc(C(=O)N/C(=C\c2ccco2)C(=O)NCc2cccnc2)cc1	6%	9%	-9%	-1.4%	-14%	4%	8%	-1%
Clc1ccc(-n2nnnc2-c2ccno2)cc1	7%	-4%	nt	nt	10%	1%	21%[46.1 µM]	7%[46.1 µM]
Cc1ccc(CNC(=O)c2ccc(NC(=O)CCS(=O)(=O)c3cccs3)cc2)cc1	2%	-21%	-3%	4.5%	5%	-1%	?	-3%
CCn1cc(C(=O)N[C@@H](CCSC)C(=O)NCCCOC)c(=O)c2cc3c(cc21)OCO3	-3%	-3%	nt	nt	1%	3%	nt	nt
CCOC(=O)CNC(=O)C1(c2ccccc2)CCCC1	1%	12%	2%	1.1%	12%	-6%	15%	-1%
CC(C)CNc1oc(-c2ccc(F)cc2)nc1C#N	-12%	2%	16%	-13%	4%	-12%	nt	nt
Cc1ccc(CN(C(=O)c2cc(=O)c3cc(Cl)c(C)cc3o2)C2CCS(=O)(=O)C2)cc1 (stereo not given)	9%	-12%	?	-4.3%	13%	4%	5%	?
CN(C)c1nc(Oc2ccc(N)cc2)nc(N(C)C)n1	4%	12%	2%	8.5%	-1%	1%	-16%	-7%
Cc1ccc(OCC(=O)NCC2(N3CCOCC3)CCCCC2)cc1C	nt	-21%	15%	6.5%	nt	nt	?	1%[46.1 µM]
COc1ccc(NC2=NCC(=O)N2c2ccccc2F)c(OC)c1	-5%	-9%	-3%	2.0%	1%	-2%	13%	19%
Cc1ccc(-n2ccnc(NCCc3ccccc3)c2=O)cc1C	nt	14%	-4%	-3.7%	nt	nt	nt	22%[46.1 µM]
Cc1ccc(NC(=S)N2CCN(S(=O)(=O)c3c(F)cccc3F)CC2)cc1C	-2%	35%[activator]	nt	nt	-18%	-7%	nt	nt
Cn1c(SCC(=O)N2CCc3ccccc3C2)nnc1-c1cccs1	1%	0%	1%	3.6%	12%	nt	-19%	5%
COc1cccc(C2NC(=O)CCC2[N+](=O)[O-])c1OC (stereo not given)	-1%	5%	nt	nt	15%	-2%	?	-4%[46.1 µM]
CC1CCCC(C)N1CCCNC(=O)CN1C(=O)COc2ccc(S(=O)(=O)N3CCOCC3)cc21 (stereo not given)	-15%	-12%	nt	nt	-3%	-7%	nt	nt
Cc1ccc(C=Nc2cccnc2N)cc1	0%	39%[activator]	0%	-3.1%	5%	12%	36%	25%
O=S(=O)(c1ccc(F)cc1)N1CCCC(CO)C1 (stereo not given)	-2%	1%	-13%	4.6%	-1%	-2%	12%	3%
O=C1c2ccccc2-c2cccnc21	-8%	6%	nt	nt	-7%	6%	nt	nt
CCOc1ccc(S(=O)(=O)N2CCC(C(=O)N3CCOCC3)CC2)cc1C	-14%	0%	nt	nt	1%	-2%	-2%[46.1 µM]	-5%[46.1 µM]
COc1nc(C)c2cc(C)oc2n1	9%	0%	-1%	-1.3%	2%	-5%	3%[46.1 µM]	-4%
Cc1ccc(-c2nc(Nc3ccc(N4CCOCC4)cc3)c3ccccc3n2)cc1	-23%	-10%	nt	nt	1%	-4%	0%[14.2 µM]	?
Additional records.
SMILES	NS1 inh	2A StopGo	Cruzain inh noDet	Cruzain inh Det	RE007 growth inh	SARS PLpro yeast	MARV entry inh	Lassa entry inh
CCn1nc(C(=O)OCC(=O)c2ccc3c(c2)OCCO3)c2ccccc2c1=O	5%	21%	21%	-1.9%	3%	14%	-3%[46.1 µM]	-2%
CN(C[C@H](Cc1ccccc1)N(C[C@@H](CC1CCCCC1)N(CCc1ccccc1)N=O)N=O)N=O	3%	33%[activator]	nt	nt	-18%	-1%	nt	nt
Cc1cc2c(sc3ccccc32)c(C)n1	-8%	10%	nt	nt	-17%	0%	0%	5%
Cc1cc(C)c(NC(=O)CSc2nc3c(c(=O)n2C)SC(C)C3)c(C)c1 (stereo not given)	-8%	?	-7%	-6.2%	-8%	-7%	nt	nt
Cc1cc(C(=O)NCCCn2ccnc2)cs1	3%	8%	2%	4.4%	1%	-6%	26%	3%

Screens as filed in PubChem BioAssay.
